Screens from PubChem.
Beta apoptosis: inhibitors of cytokine-induced beta cell apoptosis, primary screen, luminescence. protection from apoptosis, % (no concentration beside the values). 300,000 compounds, 0.8% hits. INS-1E cytokine-induced death, ATP luminescence, 48 h; percent of positive-control rescue, neutral wells zero;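 active means all replicates at 75% or more, or half of them and the mean; inconclusive means half reach 75% but not the mean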;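 further: 0% = cytokine-treated negative control wells and 100% = positive control rescue; higher means more ATP so stronger rescue from cytokine killing; wells of about 40 µL received 100 nL stock; the first replicate is given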
RanGTP-Impb inh: inhibitors of RanGTP-importin-beta interaction, primary screen, biochemical, FRET, CFP-Ran, YFP-importin-beta, homogeneous | Ran GTPase (GTP-bound) - importin-beta complex | cell-free CFP-Ran/YFP-importin-beta FRET ratio | inhibition, % (no concentration beside the values) | 300,000 compounds, 1.1% hits | AID 2216, 2009;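 active means most replicates above 15%; inconclusive means exactly half above 15%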;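 further: 0% = DMSO wells and 100% = Ran loaded with GDP instead of GTP; wells of about 40 µL received 100 nL stock; the first replicate is given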
T cruzi repl: inhibitors of intracellular T. cruzi growth, primary screen, luminescence, NIH3T3 host cells; T. cruzi beta-gal in NIH3T3, 90 h; 300,000 compounds, 1.4% hits; AID 1885, 2009; inhibition, % (no concentration beside the values);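 active means mean inhibition across valid replicates above about 55%, limit read from the data; inconclusive means mean below that limit but half or more replicates reach it; inactive means mean below it, under half of replicates reach it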;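 further: signal also drops with host cell toxicity which is not excluded here; 0% = plate median of DMSO wells and 100% = zero luminescence signal; higher percent means less beta-gal luminescence so fewer parasites; stock transfer was 50 nL into about 50 µL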
LANA-H2B inh: blockers of LANA interaction with H2A/H2B – biochemical, FP readout, HTS, primary screen | 320,000 compounds, 0.6% hits | cell-free LANA-H2A/H2B peptide, fluorescence polarization | inhibition, % (no concentration beside the values); in the data active means inhibition mostly above about 10%, no sharp cut-off; inactive means mostly below about 6.7%;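 further: stock transfer was 7.5 nL into about 10 µL; 0% = median of vehicle wells and 100% = median of positive control wells; one replicate is shown; the record names a cut of 25% in any replicate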
Calb FLC: C. albicans growth inhibition with fluconazole, primary screen, CaCi-2 strain, Alamar Blue fluorescence | C. albicans CaCi-2 (fluconazole-resistant clinical isolate) + fluconazole, 48 h | growth inhibition, % (concentration not given with the values) | 300,000 compounds, 0.57% hits;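 active means most replicates above 75%; inconclusive means exactly half above 75%; inactive means most below 75%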;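 further: all wells also contain fluconazole at 8 µg/ml as a sub-toxic cotreatment; 0% = median of DMSO wells and 100% = median of geldanamycin control wells; wells of about 8 µL received 7.5 nL stock; the first replicate is given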
Bfl-1 A1 inh: caspase 3/7 activation in MEF A1-2A-BIM cells, primary screen, A1 inhibitor project, cell-based, luminescence, HTS; Caspase-Glo 3/7 luminescence, 3 h; percent of clofoctol response, vehicle zero; 330,000 compounds, 0.066% hits; caspase activation, % (no concentration beside the values);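 active means over half of replicate activation scores above 10%, or exactly half above 10 with the replicate mean above 10; inconclusive means replicate mean below 10 yet half the replicates above 10; inactive means over half of replicates below 10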;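 further: wells of about 30 µL received 50 nL stock; many hits fall short of the cut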
Vif TR-FRET: inhibitors of Vif binding to APOBEC3G peptide, primary screen, biochemical, TR-FRET, GST-Vif 1-94, biotin-A3G peptide, dose response retest (AID 1117319); Virion infectivity factor (Human immunodeficiency virus type 1 group M subtype B (isolate …; 260,000 compounds, 0.57% hits; TR-FRET GST-Vif / biotin-A3G peptide binding; higher % means a stronger effect; test concentration not given here; strong numbers were not always called active; inhibition, %, or IC50 in µM where a hit was titrated;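 active means above the screen mean plus three standard deviations and confirmed in dose response; inconclusive means results disagree or hit not tested in dose response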;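 further: Vif residues 1-94 fused to GST binding biotinylated APOBEC3G peptide 110-148; 0% = full assay without inhibitor and 100% = GST in place of GST-Vif; retest series ran down from 100 µM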
MLL AF4-AF9 inh: inhibitors of AF4 peptide binding to AF9, primary screen, biochemical, AlphaScreen, biotin-AF4 peptide, FLAG-AF9, single point. inhibition, % at 10 µM. Protein AF-9 (Homo sapiens), P42568. 350,000 compounds, 0.47% hits. AID 651704, 2012;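 active means every replicate reaching a set inhibition limit, whatever the replicate mean, cut at about 25% in these data; inconclusive means mean inhibition reaches that limit but some replicates miss it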;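 further: 0% = plate neutral control median and 100% = total signal loss; the record names both 10 and 1 µM as test concentration; the first replicate is given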
Target sequence (P42568 whole entry, looked up): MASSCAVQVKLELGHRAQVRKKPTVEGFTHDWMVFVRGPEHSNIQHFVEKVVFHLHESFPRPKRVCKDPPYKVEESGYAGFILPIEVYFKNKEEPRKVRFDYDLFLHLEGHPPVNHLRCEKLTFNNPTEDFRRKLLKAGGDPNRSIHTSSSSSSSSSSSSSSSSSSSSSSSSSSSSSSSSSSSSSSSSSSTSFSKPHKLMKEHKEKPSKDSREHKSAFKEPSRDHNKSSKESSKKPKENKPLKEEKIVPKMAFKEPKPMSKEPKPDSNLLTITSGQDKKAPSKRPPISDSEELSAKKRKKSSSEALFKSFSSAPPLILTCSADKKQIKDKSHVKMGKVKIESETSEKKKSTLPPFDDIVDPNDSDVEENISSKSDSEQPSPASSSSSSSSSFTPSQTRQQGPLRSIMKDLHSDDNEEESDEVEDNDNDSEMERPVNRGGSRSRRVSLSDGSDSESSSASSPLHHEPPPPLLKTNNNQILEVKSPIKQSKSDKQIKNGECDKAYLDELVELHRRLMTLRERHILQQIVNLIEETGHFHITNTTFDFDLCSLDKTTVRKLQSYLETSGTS
Numbers without * were called inactive; ? = inconclusive; / = no result given; & = joins results of further samples.

SMILES	Beta apoptosis	RanGTP-Impb inh	T cruzi repl	LANA-H2B inh	Calb FLC	Bfl-1 A1 inh	Vif TR-FRET	MLL AF4-AF9 inh
CCCC(=O)Nc1cc(OC)c(C(=O)OC)cc1Cl	0	-3.0	-3	1.3	-2	-0.2	-3%	-0.5
Cc1ccc2nsnc2c1S(=O)(=O)N1CCN(C(=O)C2CCCO2)CC1 (stereo not drawn)	-1	0.3	-1	-0.3	0	-0.9	2%	/
CC(C)C(=O)NCCc1nc2ccccc2n1CCc1ccccc1	6	-1.0	-5	-5.8	-14	0.5	4%	1.1
COc1ccc(OC)c2[nH]c(=O)c(CCNC(=O)C(C)C)cc12	-6	-1.3	-6	-1.9	2	1.3	-2%	-2.2
CC1(C(=O)N(CC(=O)NC2CCCC2)Cc2ccccc2)CC(=O)N=C2C=CC=CN21 (stereo not drawn)	0	-3.6	-15	4.7	-9	0.3	-4%	0.1
O=C1CCc2cc(NS(=O)(=O)c3ccc([N+](=O)[O-])cc3)cc3c2N1CCC3	-2	-0.1	-3	7.1	8	-0.5	0%	1.3
O=S(=O)(Nc1cccc(-c2ccc(N3CCCCCC3)nn2)c1)c1ccccc1Cl	8	1.0	10	-2.0	1	0.1	/	2.2
O=C(CCNc1ccc(Cl)c(C(F)(F)F)c1)c1ccco1	-1	-1.9	21	4.9	-5	-0.3	-4%	/
O=C(N=Nc1c(O)n(Cc2ccccc2)c2ccccc12)c1ccc(O)cc1	8	4.8	18	-0.5	12	-3.4	0%	/
CC(C)(C)C1(C)OC(C(N)=O)C(C(N)=O)O1 (stereo not drawn)	-7	5.0	-11	1.7	-4	0.1	0%	/
Clc1ccccc1-c1nc2ccccc2[nH]1	-4	0.2	4	0.9	1	-4.1	/	-2.6
CCN(CC)C(=O)C[n+]1cccc(C(N)=O)c1	0	4.6	-30	-1.6	1	0.7	-7%	/
Cc1ccccc1OCC(=O)NCCCNC(=O)c1cccnc1	/	0.5	8	-2.5	-4	0.7	-2%	-5.1
CCOCCc1nnc(NC(=O)CCc2ccccc2)s1	-6	0.3	0	-6.6	-8	0.3	-8%	-3.5
CC1CC2=C(NC(=S)NC2c2cccc(F)c2)/C(=C/c2cccc(F)c2)C1 (stereo not drawn)	/	1.4	59*	/	-24	/	2%	2.8
Cc1cc2n(n1)SC(Nc1ccc(F)cc1)N2 (stereo not drawn)	-5	-1.1	14	-4.4	-14	0.6	30%	/
O=C(O)c1cc(Br)ccn1	-13	-3.3	-4	-4.8	-13	1.3	-3%	0.0
COc1ccc(CCNS(=O)(=O)c2cc(/C=C/C(=O)O)ccc2C)cc1OC	-2	-3.4	-6	2.0	-1	0.8	/	0.5
CN(C)c1nc(N)nc(-c2cccnc2)n1	/	1.9	-13	4.0	3	0.7	2%	/
COc1ccccc1CNC(=O)COC(=O)C1CCN(c2ccc(C(F)(F)F)cn2)CC1	-4	2.9	-15	-1.8	-9	0.3	5%	-13
COc1ccc(CNC(=S)Nc2cccc(C)c2)cc1	-2	3.3	8	7.6	3	1.0	6%	/
O=C(CSc1ccc(/C=N/NC(=O)c2cccc(F)c2)o1)Nc1ccccc1	-1	4.4	3	0.5	11	0.3	1%	/
O=C(O)Cc1ccc2oc(-c3ccccn3)nc2c1	1	-1.7	-7	-2.6	1	-0.2	0%	-2.2
CC(=O)NC(Cc1ccccc1F)C(=O)NC1CCN(C(=O)NCc2ccccc2)CC1 (stereo not drawn)	-3	6.6	-3	-4.0	-8	0.2	-5%	-0.1
O=C(Cc1cccs1)N1CCC(c2nc3c(nnn3Cc3ccccc3Cl)c(=O)[nH]2)CC1	6	?	4	-3.5	15	0.4	11%&-1%	/
CC(=O)c1cccc(Nc2ncnc3ccc(Br)cc23)c1	8	-1.4	-2	-1.8	/	0.3	/	-1.0
COc1ccccc1NC(=S)N(C(C)C)C(C)c1ccccn1 (stereo not drawn)	-12	-1.6	-11	-3.2	8	1.6	20%	-2.0
CC(C)CC(=O)Nc1ccc(-c2nc3ccccc3c(=O)[nH]2)cc1	-3	1.3	1	3.8	1	-4.4	/	-5.6
CCCOc1ccc(S(=O)(=O)n2cc(F)c(=O)[nH]c2=O)cc1	2	?	22	3.3	1	1.0	/	-2.2
c1ccc(-c2ccc(C(c3ccccc3)n3ccnc3)cc2)cc1 (stereo not drawn)	4	0.0	33	-0.5	/	-0.6	2%	1.5
COc1ccc(OC)c(S(=O)(=O)Nc2cc3c4c(c2)CCN4C(=O)CC3)c1	0	0.8	2	2.8	1	1.5	-3%	-1.1
Cc1ccc(-n2c(-c3cn(C)nc3C)n[nH]c2=S)cc1	-4	8.7	-1	1.8	-4	1.0	13%	/
O=C(NNS(=O)(=O)c1ccccc1)c1csc(-c2cccnc2)n1	-11	-3.9	/	-9.4	0	0.0	0%	3.4
Cn1c(=O)c2[nH]c(CCCC(=O)O)nc2n(Cc2ccccc2)c1=S	-5	-5.1	-16	2.4	-9	-0.2	/	-1.7
COc1ccccc1CN1CCN(C(=O)c2ccco2)CC1	-6	1.2	-7	-8.2	-10	0.5	/	0.1
CC(=O)Nc1ccccc1Nc1nc(NCCO)nc(N2CCCC2)n1	-3	-2.9	-16	-1.4	-9	-0.1	/	-0.7
COCCNC(=O)C(c1ccc(F)cc1)N(C(=O)CCC(=O)Nc1nccs1)c1cccc(C)c1 (stereo not drawn)	-4	/	/	-7.3	15	-0.3	-6%	1.0
CC1Cn2c(nnc2-c2ccc(F)cc2)S1 (stereo not drawn)	-7	-4.9	-9	0.4	-7	1.2	-7%	7.1
Cc1occc1-c1nnc(SCC(=O)N2CCN(c3ccccc3)CC2)n1C	0	-1.6	-6	-0.1	0	0.2	57µM*	/
Cc1cccc(NC(=O)CN(C)S(=O)(=O)c2ccc(Br)cc2)n1	2	?	-6	-13	-8	0.3	-3%	/
COc1ccc(C(=O)CC(=O)C(=O)Nc2c(C)cccc2C)cc1	-3	2.5	-5	-1.3	-11	0.3	3%	-2.0
Cc1cc(OCC(=O)NCCCN2CCOCC2)c2c(C)c(C)c(=O)oc2c1	3	0.8	-3	-0.6	13	0.3	2%	-5.9
CCOC(=O)c1cc(NC(=O)N(CC)C2CCCCC2)c(C)nc1C	-1	-3.0	10	2.0	?	0.7	4%	1.2
C=CCn1c(=O)c2ccccc2n2c(SCC(=O)NCCc3ccccc3)nnc12	/	-3.0	-8	0.6	-5	1.5	-3%	/
Cc1ccc(C(=O)NCCCCNC(=O)c2ccc(C)o2)o1	1	1.8	-4	3.9	38	0.2	4%	/
Cc1cccc(N2CCN(C(=O)NC3CCCCC3)CC2)c1C	/	2.7	10	1.6	-2	0.9	/	2.8
CCc1ccc(/C=C(\C)C(=O)c2c(C)cc(C)[nH]c2=O)cc1	-4	8.5	-3	-6.1	5	-1.2	/	/
CC(Sc1nnnn1C1CC1)C(=O)N1c2ccccc2NC(=O)C1(C)C (stereo not drawn)	-4	/	/	-3.0	/	0.2	/	1.4
CN1CCC(C(=O)N2CCCC(C(=O)c3ccc4c5c(cccc35)CC4)C2)CC1 (stereo not drawn)	-1	-3.2	10	0.0	11	-0.2	-3%	9.3
COc1ccc(CC(=O)NNC(=O)c2cccs2)cc1OC	-6	?	-16	-6.1	-31	0.7	2%	-2.2
O=C(c1ccco1)N1CCN(C(=O)C2CC(=O)N(c3ccc(Cl)cc3)C2)CC1 (stereo not drawn)	1	-1.7	-24	2.9	3	-0.3	27%	-4.0
O=C(/C=C/c1cccs1)NC(=S)Nc1ccc(S(=O)(=O)Nc2ccccc2C(F)(F)F)cc1	-7	2.4	8	-4.0	14	0.6	6%	-0.2
CC(NC(=O)c1ccc(Cn2cc([N+](=O)[O-])cn2)o1)c1ccccc1 (stereo not drawn)	-4	4.5	-14	0.5	5	0.1	0%	/
O=C(COc1ccc(F)cc1Br)NCC1(N2CCOCC2)CCCCC1	4	/	/	0.1	/	-1.8	/	0.7
Cc1ccc(NC(=O)Nc2ccc3c(c2)OCO3)c(OC(F)F)c1	-3	1.4	10	-1.3	-27	-6.6	/	0.7
Cc1ccccc1OCC(=O)NC(=S)Nc1ccc(Br)c(C)n1	-4	3.9	15	11	-8	0.5	12%	/
CCSc1nnc(CNC(=O)C23CC4CC(CC(C4)C2)C3)n1Cc1ccccc1	5	-0.2	14	-0.4	-18	0.5	/	3.7
CCN1C(=O)C(Cc2nc3ccccc3c(=O)n2-c2ccccc2)c2ccccc21 (stereo not drawn)	-1	4.0	20	-2.9	4	-0.5	?	/
CCOc1ccc(S(=O)(=O)N2CCCC(C(=O)NCC3CCCO3)C2)cc1Cl (stereo not drawn)	/	5.4	-10	-3.3	3	0.3	-2%	0.5
COCCCOc1ccnc(CS(=O)c2nc3ccccc3[nH]2)c1C (stereo not drawn)	3&7	3.6&2.5	10&-11	-9.1&-7.8	/	1.2&-0.4	/	-1.8

One compound at a time, from the list above. Order of values: Beta apoptosis | RanGTP-Impb inh | T cruzi repl | LANA-H2B inh | Calb FLC | Bfl-1 A1 inh | Vif TR-FRET | MLL AF4-AF9 inh
COc1ccc(CC(=O)NNC(=O)c2cccs2)cc1OC is entered as -6 | ? | -16 | -6.1 | -31 | 0.7 | 2% | -2.2
CC(Sc1nnnn1C1CC1)C(=O)N1c2ccccc2NC(=O)C1(C)C (stereo not drawn) is entered as -4 | / | / | -3.0 | / | 0.2 | / | 1.4

Other entries follow.
SMILES	Beta apoptosis	RanGTP-Impb inh	T cruzi repl	LANA-H2B inh	Calb FLC	Bfl-1 A1 inh	Vif TR-FRET	MLL AF4-AF9 inh
Cc1c(NC=C(C#N)C#N)c(=O)n(-c2ccccc2)n1C	4	-2.4	1	0.3	3	0.5	7%	-3.1
Cc1nn2c(-c3cccnc3)ccnc2c1-c1ccccc1	7	-1.1	-18	7.1	-1	1.1	/	/
COc1ccc2cc(C(=O)N(C)CC(=O)Nc3ccccc3Br)ccc2c1	-2	/	/	-2.7	/	-0.2	-9%	-3.4
CCc1cc2ccc(C)cc2nc1SCC(=O)NC1CCCC1	-7	-0.2	10	1.8	-2	0.2	/	-0.2
O=C(O)CSCC(=O)Nc1cc(C(F)(F)F)ccc1Cl	-8	4.7	-18	6.1	7	0.5	-4%	/
COC(=O)c1nn(-c2ccc(C)cc2)ccc1=O	-1	1.1	2	-0.6	-1	-0.2	0%	5.6
O=C(Nc1cc(S(=O)(=O)N2CCOCC2)ccc1Oc1ccc(F)cc1)C1=COCCO1	-2	1.1	28	-5.3	/	0.8	4%	1.9
O=C1NC(=O)/C(=C\c2ccc(OCc3ccccc3)cc2)S1	3	-2.4	-7	-4.9	-1	-0.8	/	-6.2
CC(Nc1nc(-c2ccncc2)nc2ccccc12)c1ccccc1 (stereo not drawn)	-10	2.3	61*	4.2	-16	1.1	-9%	2.8
COc1cc(OC)cc(N(C(=O)c2snc(C(N)=O)c2N)C(C(=O)NCC2CCCO2)c2ccc(C)o2)c1 (stereo not drawn)	-1	-4.9	44	-4.5	-4	-0.2	/	8.0
